Screening results as filed in PubChem.
PrP 5UTR inh: suppresses PrP 5' UTR mRNA reporter expression; AID 488862; inhibition, % (no concentration beside the values); 340,000 tested, 0.35% active; cell-based PrP 5' UTR mRNA reporter, plate reader;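 active means every replicate at 50% or more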;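 further: 0 = median of the neutral control wells; tested in H4 reporter cells; numbers are from one replicate; inactives centre near -14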
Sa RN4220 lethal: kills Staphylococcus aureus RN4220; 330,000 tested, 0.33% active; S. aureus RN4220 growth, OD600, 16 h; inhibition, % (no concentration beside the values);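 active means z-score of -3 or lower and OD600 up to 0.18 on both plates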;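 further: plate controls were untreated cells for no effect and reference antibiotic for full effect; stock transfer was 100 nL into about 80 µL; one replicate is shown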
BJeLR viability: BJeLR cell viability loss. BJeLR (HRASV12) viability, CellTiter-Glo ATP luminescence, 48 h; reference of the scale not given here. inhibition, % (test concentration not listed). 300,000 tested, 0.17% active. AID 1554;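 active means replicate mean above 50%; inconclusive means above 50% but judged a plate artefact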;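 further: 50 nL library stock added to about 25 µL; numbers are from one replicate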
ugtP null kill: kills S. aureus RN4220 lacking UgtP; growth inhibition, % (test concentration not listed); AID 1259309; S. aureus RN4220 ugtP deletion, OD600 growth, 16 h; some inactives read as strong as hits; 330,000 tested, 0.54% active;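 active means z-score under -3 and OD600 up to 0.15 on both plates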;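 further: plate controls were untreated wells for no effect and antibiotic for full effect; wells of about 80 µL received 100 nL stock; the first replicate is given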
Autofluor counter: compound fluorescence in toxin protease inhibitor counterscreen | compound autofluorescence counterscreen, microsphere flow cytometry; hits give high values | fluorescence intensity (test concentration not listed) | 360,000 tested, 3.1% active;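 active means at least 3 SD above the mean of all compounds, about 16000 in these data; inconclusive means too few beads counted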;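 further: 100 nL of 1 mM stock went into each well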
Mtb hypoxia rep: reduces hypoxia-regulated biosensor signal in M. tuberculosis; fluorescence inhibition, % (concentration not given with the values); 300,000 tested, 0.1% active; M. tuberculosis hypoxia-regulated fluorescent reporter, fluorescence;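 active means 35 to 45% if threefold the growth effect, above 45% if 1.5-fold the growth effect; inactive means the rest, general growth blockers included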;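 further: wells of about 50 µL received 100 nL stock; 0% = vehicle wells and 100% = reference inhibitor wells; whole bacteria with a GFP reporter of the hypoxia response; strong numbers were not always called active; many hits fall short of the cut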
Mtb hypoxia rep growth: second read-out of Mtb hypoxia rep, no call of its own (marks repeat the call); growth inhibition, %; measured here: M. tuberculosis growth (absorbance);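 0% = vehicle and 100% = reference antibiotic; read after six days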
An asterisk follows results filed as active; ? = inconclusive; / = no result given.

#	Compound	PrP 5UTR inh	Sa RN4220 lethal	BJeLR viability	Mtb hypoxia rep growth	Autofluor counter	ugtP null kill	Mtb hypoxia rep
1	CCCCN(C(=S)NC(=O)c1ccccc1)c1c(N)n(Cc2ccccc2)c(=O)[nH]c1=O	-14	3.0	-3	5	2024	-1	-3
2	Cc1cc(=O)n2nc(N3CCCC3C(=O)NCCCN3CC(C)CC(C)C3)sc2n1 (stereo not given)	-19	3.3	10	6	2489	1	9
3	CCN(CC)c1ccc(NC(=O)c2cc(OC)cc(OC)c2)c(C)c1	45	4.2	9	5	11302	-2	9
4	COc1ccc(NC(=O)c2nn(C)cc2[N+](=O)[O-])cc1	-22	-1.0	-4	-1	6931	1	0
5	COC(=O)c1ccc(S(=O)(=O)c2ccc(C(=O)OC)s2)s1	/	5.8	13	16	/	-1	18
6	Cc1nc(C)c(-c2ccc(SCC(=O)Nc3ccc(C)c(Cl)c3)nn2)s1	-28	-0.1	-12	1	5954	-8	3
7	O=C(NCCCn1ccnc1)C(=O)NCC1OCCCN1S(=O)(=O)c1ccc(F)cc1 (stereo not given)	-6	3.1	-5	-5	2365	3	-5
8	Oc1ccc(Br)cc1C=Nc1ccc2[nH]ncc2c1	0	3.9	-2	0	2626	10	10
9	NC(=S)c1ccc(C(N)=S)o1	-20	1.0	-8	1	5108	3	10
10	COc1ccc(C(=O)Nc2ccc(C(=O)OCC(=O)c3cccc4ccccc34)cc2)cc1	-64	/	-11	/	2643	/	/
11	COc1ccccc1N1C(=S)N=C(Nc2c(C)cccc2C)C12CCCC2	-10	4.0	-4	2	4872	10	12
12	O=C(O)C1Sc2[nH]c(=O)sc2C2c3cc(Br)ccc3OC(=O)C12 (stereo not given)	-20	0.6	-3	-6	4908	-2	10
13	O=C(C[n+]1cc(-c2ccc(Br)cc2)n2c1CCCCC2)c1ccccc1	-36	0.9	5	9	4905	-10	4
14	CC(=NN1CCN(C)CC1)c1ccc(OC(F)F)cc1	/	5.6	/	5	/	4	11
15	O=C(N[C@@H](Cc1ccccc1)C(=O)N1CCC2(CC1)NCCc1[nH]cnc12)c1cccc(Br)c1	-16	4.7	10	0	4475	11	3
16	Cn1ncc2c(Nc3ccc(Cl)cc3)ncnc21	-16	22	0	-3	?	19	0
17	COc1cc(S(=O)(=O)N2CCN3CCCC3C2)ccc1-n1cnnn1 (stereo not given)	-22	4.5	-4	7	8287	-4	-7
18	O=C(COC(=O)c1ccc(S(=O)(=O)NCc2ccco2)cc1)NCCC1=CCCCC1	-14	1.8	-8	-6	10096	-6	-2
19	O=C(Nc1ccccc1)C1CCOC1=O (stereo not given)	/	5.6	6	4	/	12	8
20	Fc1ccccc1COc1cccc(C=Nn2cnnc2)c1	/	5.3	/	-21	/	-6	1
21	CO[C@H]1[C@@H]2C=CO[C@@H](O[C@H]3O[C@@H](CO)[C@H](O)[C@@H](O)[C@@H]3O)[C@@H]2[C@@]2(CO)O[C@@H]12	-20	-11	/	3	3521	0	13
22	O=C(NN=Cc1cccs1)c1n[nH]c2c1CCC2	/	3.4	/	-1	/	4	1
23	CC(C)OCCCNC(=O)C1CC(=O)N(CCc2ccc(F)cc2)C1 (stereo not given)	-21	-0.2	-17	-4	3519	1	-1
24	COc1ccc(-c2csc(NC(=O)CCn3cnc4ccccc4c3=O)n2)cc1OC	-28	2.1	-2	3	4067	48	10
25	Cc1ccc2c(c1)c1c3n2CCN(CC#N)C3CCC1 (stereo not given)	-28	/	-4	/	3427	/	/
26	COc1cc(/C=C/C(=O)Nc2nnc(C(C)(C)C)s2)cc(OC)c1OC	-35	-1.4	-2	10	2005	4	-9
27	CCn1c(SCC(=O)Nc2ccc(OC)c(OC)c2)nnc1-c1cnccn1	-10	-0.4	-12	0	5292	-1	6
28	O=C(O)CCn1c(C2CCCCC2)nc2ccccc21	-22	2.1	-1	3	10101	6	5
29	COC(=O)[C@@]1(Cc2ccc(F)cc2)[C@H]2c3cc(C(=O)N(C)C)n(CCc4ccc(OC)c(Br)c4)c3C[C@H]2CN1C(=O)c1ccccc1	-14	/	-2	/	4097	/	/
30	CNc1ccc(C(=O)OCC(=O)NCc2ccc3c(c2)OCO3)cc1[N+](=O)[O-]	-8	-6.3	/	8	6050	7	11
31	COCCNC(=S)NN=C(C)c1ccc(Cl)c(Cl)c1Cl	/	1.2	/	6	/	7	17
32	CN(C(=O)c1ccc(S(=O)(=O)c2cccc(Cl)c2)c([N+](=O)[O-])c1)C1CCCCC1	7	-3.2	18	2	10676	18	9
33	COc1cccc(NC(=O)CN(C)CC(=O)Nc2ccc3c(c2)CCC3)c1	-26	2.9	-4	5	4354	4	7
34	O=C(Cc1ccc(S(=O)(=O)N2CCOCC2)s1)N1CCN(S(=O)(=O)c2ccccc2[N+](=O)[O-])CC1	-11	1.0	/	3	3727	8	7
35	CCCCn1c(=O)c2c(O)cc(=O)oc2c2ccccc21	-16	7.1	-1	3	?	16	-9
36	CCCCn1c(=O)c(-c2ccccc2)c(O)c2ccccc21	-7	1.1	1	6	4433	4	6
37	Cc1ccc(OCCC(=O)OCC(=O)c2c(N)n(C)c(=O)n(C)c2=O)cc1	-21	4.6	4	-8	?	16	-1
38	Cc1ccccc1CS(=O)(=O)c1nnc([C@H](Cc2ccccc2)NC(=O)OC(C)(C)C)o1	/	12	-11	6	11625	37	10
39	CCCCC(CC)CNS(=O)(=O)c1ccc2c(c1)CCN2C(=O)CCC(=O)O (stereo not given)	-10	-1.0	-3	7	10876	1	1
40	COC(=O)c1ccc(NC(=O)CSc2nnc(-c3ccccc3Br)n2-c2ccccc2)cc1	-10	-2.8	5	-1	4811	-27	-4

Rewritten in transposed form: two of the compounds above
[1] CCCCN(C(=S)NC(=O)c1ccccc1)c1c(N)n(Cc2ccccc2)c(=O)[nH]c1=O
[2] Cc1cc(=O)n2nc(N3CCCC3C(=O)NCCCN3CC(C)CC(C)C3)sc2n1 (stereo not given)
Screen / compound no.	1	2
PrP 5UTR inh	-14	-19
Sa RN4220 lethal	3.0	3.3
BJeLR viability	-3	10
Mtb hypoxia rep growth	5	6
Autofluor counter	2024	2489
ugtP null kill	-1	1
Mtb hypoxia rep	-3	9

Next section
#	Compound	PrP 5UTR inh	Sa RN4220 lethal	BJeLR viability	Mtb hypoxia rep growth	Autofluor counter	ugtP null kill	Mtb hypoxia rep
41	CCOC(=O)c1[nH]c2c(c1C)C(=O)CC(c1ccc(OC)c(OC)c1)C2 (stereo not given)	-7	2.3	-3	/	2647	-5	/
42	CCN(CC(=O)Nc1ccc(OC)cc1)C(=O)C1CCN(C(=O)c2ccc(Cl)cc2)CC1	-15	4.7	/	-6	3074	10	2
43	C=CCNC(=S)NN=Cc1ccc(-c2cccc([N+](=O)[O-])c2)o1	/	7.1	/	1	/	-19	7
44	CCn1cc(C(=O)O)c(=O)c2cnc(N3CCN(C(=S)Nc4ccc(F)cc4)CC3)nc21	/	10	0	5	/	-7	12
45	Cc1cc(=O)oc2cc(OCCSCCN3CCOCC3)ccc12	-2	2.4	0	/	2739	10	/
46	Cc1cnc(C(=O)N2CCCC(C(=O)c3cccc(OC(C)C)c3)C2)cn1 (stereo not given)	-26	3.0	-2	22	3373	2	3
47	CCn1c(N)c(C(=O)N2CCOCC2)sc1=S	0	-8.5	-5	4	2855	-6	0
48	COC(=O)[C@H]1C[C@@H]1[C@H](NC(=O)c1ccccc1)c1ccccc1	-1	/	-3	/	3980	/	/
49	Cc1ccc(C(N)=NOC(=O)C(C)c2ccc([N+](=O)[O-])cc2)cc1 (stereo not given)	/	0.6	/	8	/	28	-5
50	O=C(CSc1nnc(-c2ccccc2)n1Cc1ccco1)Nc1ccc2c(c1)OCCO2	-31	2.3	-3	2	15670	16	9
51	CN(CCC(=O)c1ccccc1)CCC(=O)c1ccccc1	-25	-0.6	6	4	4208	11	16
52	COc1ccc(N2CCN(C(c3ccccc3)c3sc4nc(C)nn4c3O)CC2)cc1 (stereo not given)	-41	-12	5	11	7155	0	2
53	CC(C)(C)C1CCC(=O)N(CCC(Sc2ccccc2)c2ccccc2)CC1 (stereo not given)	/	-5.6	/	8	/	17	18
54	CCCOC(=O)C1=C(C)NC(=O)NC1c1ccc(Br)s1 (stereo not given)	-16	11	-3	-3	4783	-1	11
55	C=CCNc1nc(Cl)nc(Nc2ccccc2)n1	-16	5.1	-5	-1	3426	-6	0
56	O=c1oc2ccccc2n1CSC1=NCCS1	-1	-3.3	3	/	2176	-3	/
57	Cn1c(=O)n(C)c2cc(C=NNC(=O)c3ccc(Cl)cc3Cl)ccc21	/	4.0	/	11	/	-4	10
58	CN1CCN(C(=O)N2c3ccccc3C=Cc3ccccc32)CC1	-11	3.7	2	2	4977	8	1
59	Cc1cc(C(=O)COC(=O)C2=NNC(=O)CC2)c(C)n1CCc1ccccc1	15	7.0	5	4	4708	30	-3
60	COCCn1nnnc1CN1C2CCCC1CC(NC(C)=O)C2 (stereo not given)	1	0.8	0	-14	4404	2	-3
61	COc1ccc(CNCCNC(=O)c2cccs2)cc1OC	-18	1.8	-5	2	4029	1	18
62	Cn1ncc2c(O/N=C(\N)c3ccc(C(C)(C)C)cc3)ncnc21	-2	/	99*	/	3438	/	/
63	CCOc1ccc2nc(SCC(=O)NCc3ccc(S(N)(=O)=O)cc3)sc2c1	-27	6.8	-3	7	3394	18	4
64	C=CCOC(=O)C1=C[C@@H](c2ccc3c(c2)OCO3)C[C@@H](OCc2ccc(CO)cc2)O1	-17	/	4	/	3326	/	/
65	Cc1ccc(-n2nc3c(=O)n(CC(=O)NCCc4cccs4)nc(C)c3c2C)cc1	-24	-0.3	1	18	5895	4	5
66	O=C(CN1C(=O)NC2(CCCCCCC2)C1=O)Nc1ccc(Br)cc1	-8	0.2	/	4	6464	-14	5
67	Cc1cccc(OC(C)C(=O)N/N=C\c2ccncc2)c1 (stereo not given)	-23	/	13	/	4818	/	/
68	CN(C)S(=O)(=O)c1cccc(C(=O)NCC2(N3CCOCC3)CCCCC2)c1	-15	5.0	11	3	3613	-1	3
69	CCCCC(=O)Nc1ccc(C(=O)NNC(=O)c2ccc(C)c(Br)c2)cc1	-21	5.4	-7	4	8873	-2	5
70	CN(Cc1ccccc1)c1ccc(S(=O)(=O)N2CCC(C(=O)O)CC2)cc1[N+](=O)[O-]	-5	2.4	/	1	3161	8	-4
71	O=S(=O)(O)c1nc2ccccc2n1Cc1ccccc1	-21	3.4	6	4	9355	2	2
72	Cc1ccc(-c2ccnc(=S)[nH]2)cc1	0	-0.8	6	0	9344	12	-5
73	COCCOC(=O)c1c(C)n(C)c2ccc(OC(=O)c3c(OC)cccc3OC)cc12	-25	15	-4	3	3624	1	4
74	C=CCn1c(CCNC(=O)c2ccccc2F)nnc1SCC(=O)Nc1nc(C)cs1	-33	0.6	-8	/	2179	5	/
75	Cc1ccc(C(=O)NCC(=O)Nc2ccc3c(c2)CCC3)cc1	-70	-0.6	/	-4	3994	18	4
76	C=CCOc1cccc(C2/C(=C(/O)c3ccc(C)cc3)C(=O)C(=O)N2CCN2CCOCC2)c1 (stereo not given)	-8	13	6	/	4571	-5	/
77	CCC(=O)N1CCc2cc(S(=O)(=O)NCCN3CCCCC3CC)ccc21 (stereo not given)	-8	1.6	5	/	3988	-1	/
